HNF4A DNA FP – change in binding of human HNF4A to DNA, primary screen, biochemical, fluorescence polarization, FITC-DNA; Hepatocyte nuclear factor 4-alpha (Homo sapiens), P41235; 1 h; activity change, % at 10 µM; 360,000 tested, 0.3% active; AID 1224865, 2016; in the data active = activity change above about 30%, passing the limit was not always enough;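 also: controls were the assay level and a saturating level of protein; the project sought stronger binding though the title names inhibitors; some compounds called inactive have numbers as strong as hits; positive values seem to mean higher polarization but the record does not say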
Target sequence (P41235 whole entry, looked up): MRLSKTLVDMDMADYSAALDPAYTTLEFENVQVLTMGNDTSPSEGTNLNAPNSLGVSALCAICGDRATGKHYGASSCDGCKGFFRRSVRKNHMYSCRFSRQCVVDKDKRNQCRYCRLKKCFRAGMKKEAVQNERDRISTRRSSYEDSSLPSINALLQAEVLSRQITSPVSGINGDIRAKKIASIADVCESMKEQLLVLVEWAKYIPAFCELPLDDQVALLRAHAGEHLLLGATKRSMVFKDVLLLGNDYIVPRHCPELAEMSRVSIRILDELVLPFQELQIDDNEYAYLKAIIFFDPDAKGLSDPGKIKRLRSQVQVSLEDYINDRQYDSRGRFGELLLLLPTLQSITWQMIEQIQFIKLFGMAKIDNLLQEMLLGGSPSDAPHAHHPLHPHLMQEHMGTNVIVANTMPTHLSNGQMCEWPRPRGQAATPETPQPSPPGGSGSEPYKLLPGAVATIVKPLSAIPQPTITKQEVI
RanGTP-Impb inh – inhibitors of RanGTP-importin-beta interaction, primary screen, biochemical, FRET, CFP-Ran, YFP-importin-beta, homogeneous; Ran GTPase (GTP-bound) - importin-beta complex; AID 2216, 2009; 300,000 tested, 1.1% active; inhibition, % (no concentration beside the values); cell-free CFP-Ran/YFP-importin-beta FRET ratio;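 active = most replicates above 15%; inconclusive = exactly half above 15%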;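 also: 0% = DMSO wells and 100% = Ran loaded with GDP instead of GTP; wells of about 40 µL received 100 nL stock; the first replicate is given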
Vif TR-FRET – inhibitors of Vif binding to APOBEC3G peptide, primary screen, biochemical, TR-FRET, GST-Vif 1-94, biotin-A3G peptide, dose response retest (AID 1117319); Virion infectivity factor (Human immunodeficiency virus type 1 group M subtype B (isolate …; TR-FRET GST-Vif / biotin-A3G peptide binding; higher % means a stronger effect; test concentration not given here; strong numbers were not always called active; inhibition, %, or IC50 in µM where a hit was titrated; 260,000 tested, 0.57% active;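 active = above the screen mean plus three standard deviations and confirmed in dose response; inconclusive = results disagree or hit not tested in dose response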;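 also: Vif residues 1-94 fused to GST binding biotinylated APOBEC3G peptide 110-148; 0% = full assay without inhibitor and 100% = GST in place of GST-Vif; retest series ran down from 100 µM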
ALR inh – inhibitors of human ALR sulfhydryl oxidase, primary screen, biochemical, H2O2 detection, HRP-luminol luminescence, single point | purified ALR, DTT oxidation | inhibition, % (no concentration beside the values) | 290,000 tested, 3.8% active | AID 485317, 2010;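 active = mean and each replicate at 75% or more; inconclusive = only one of the two met; inactive = neither met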;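 also: stock transfer was 7.5 nL into about 7.5 µL; 0% = neutral wells and 100% = wells with inactivated enzyme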
Target sequence (P55789 whole entry, looked up): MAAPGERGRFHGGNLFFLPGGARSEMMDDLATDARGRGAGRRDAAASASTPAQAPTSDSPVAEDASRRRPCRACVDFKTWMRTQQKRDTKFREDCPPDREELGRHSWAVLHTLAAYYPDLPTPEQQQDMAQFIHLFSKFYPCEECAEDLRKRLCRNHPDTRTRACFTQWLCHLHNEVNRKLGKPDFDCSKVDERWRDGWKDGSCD
B2AR ag – beta2AR agonists driving receptor internalization, primary screen, cell-based, FAP fluorogen, flow cytometry | Beta-2 adrenergic receptor (Homo sapiens), P07550 | Am2.2-beta2AR cells; reference of the scale not given here | response, % (no concentration beside the values) | 340,000 tested, 0.43% active | AID 504454, 2011;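 active = response above a set limit, near 3 SD of response in nonfluorescent compounds, cut at about 42% in these data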;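 also: stock transfer was 100 nL into about 11 µL; a reference agonist was the positive control; negative values mostly stem from fluorescent compounds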
Target sequence (P07550 whole entry, looked up): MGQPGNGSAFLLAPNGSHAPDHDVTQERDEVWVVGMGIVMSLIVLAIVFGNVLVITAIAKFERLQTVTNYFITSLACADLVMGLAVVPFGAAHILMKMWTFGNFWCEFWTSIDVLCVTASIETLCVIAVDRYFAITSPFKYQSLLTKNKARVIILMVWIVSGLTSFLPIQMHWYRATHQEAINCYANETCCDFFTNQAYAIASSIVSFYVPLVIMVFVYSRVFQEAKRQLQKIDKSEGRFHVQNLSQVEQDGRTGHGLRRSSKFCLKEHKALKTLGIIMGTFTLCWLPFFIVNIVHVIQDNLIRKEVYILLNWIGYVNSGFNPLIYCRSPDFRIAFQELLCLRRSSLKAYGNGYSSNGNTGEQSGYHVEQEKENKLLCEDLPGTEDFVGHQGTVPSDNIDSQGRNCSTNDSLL
LANA-H2A inh – blockers of LANA interaction with H2A/H2B – biochemical, FP readout, HTS, primary screen. Protein LANA1 (Human herpesvirus 8 type P (isolate GK18)), Q9QR71. cell-free LANA-H2A/H2B peptide, fluorescence polarization. inhibition, % (concentration not given with the values). 320,000 tested, 0.6% active; in the data active = inhibition mostly above about 10%, no sharp cut-off; inactive = mostly below about 6.7%;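 also: stock transfer was 7.5 nL into about 10 µL; 0% = median of vehicle wells and 100% = median of positive control wells; one replicate is shown; the record names a cut of 25% in any replicate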
Calb FLC – C. albicans growth inhibition with fluconazole, primary screen, CaCi-2 strain, Alamar Blue fluorescence. C. albicans CaCi-2 (fluconazole-resistant clinical isolate) + fluconazole, 48 h. growth inhibition, % (concentration not given with the values). 300,000 tested, 0.57% active. AID 1979, 2009;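 active = most replicates above 75%; inconclusive = exactly half above 75%; inactive = most below 75%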;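 also: all wells also contain fluconazole at 8 µg/ml as a sub-toxic cotreatment; 0% = median of DMSO wells and 100% = median of geldanamycin control wells; wells of about 8 µL received 7.5 nL stock; the first replicate is given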
Numbers without * were called inactive; ? = inconclusive; · = not tested or not shown; & = joins results of further samples.

Values run as follows: HNF4A DNA FP	RanGTP-Impb inh	Vif TR-FRET	ALR inh	B2AR ag	LANA-H2A inh	Calb FLC
N#Cc1cc2[nH]c3ccccc3c2[n+](-c2ccc([N+](=O)[O-])cc2)c1N
    3.7	0.3	3%	-27	-2	0.5	-5
CCC(=O)N1N=C(c2ccccc2)CC1c1ccccc1 (centres undefined)
    1.0	-3.2	-6%	-26	-8	2.5	10
O=C(CCNS(=O)(=O)c1ccc(Cl)cc1)N1CCN(Cc2ccccc2)CC1
    0.1	2.2	10%	2	-3	3.9	4
Cc1ccc2c(c1)N=C(c1ccc(F)cc1)CO2
    1.5	·	20%	0	-5	0.0	-4
O=C(NCc1nc2ccccc2[nH]1)c1cccc(S(=O)(=O)N2CCCC2)c1
    0.1	0.6	24%	-11	-5	4.3	15
O=C(Nc1nc(-c2ccccc2)cs1)c1ccc2c(c1)S(=O)(=O)c1ccccc1C2=O
    3.8	-0.8	·	-21	9	1.8	-10
CCn1c(SCC(=O)Nc2ccc(C)cc2)nnc1-c1ccccn1
    -1.5	-3.7	2%	0	-3	-1.2	12
Cc1cccc(NS(=O)(=O)Cc2ccccc2)n1
    -1.4	7.7	3%	·	4	0.0	10
O=C(O)CCc1ccc(-c2ccc(F)cc2)n1CC(=O)O
    -1.9	-1.7	9%	20	-3	-2.7	4
COc1ccc(C(=O)C2CCCN(Cc3cccn3-c3ccccn3)C2)c(OC)c1 (centres undefined)
    1.6	0.8	3%	0	7	-4.5	53
CC(=O)/C(=C/N(C)C)Sc1ccc(C)cc1
    -3.7	0.0	8%	51	3	2.3	-3
Cc1cc(=S)n(-c2ccccc2)n1C
    -2.2	?	10%	2	28	-3.9	-3
COC(=O)CCCC(=O)NC1CC(C)(C)Cc2c1cnn2-c1ccc(C)cc1 (centres undefined)
    -2.6	0.5	·	0	9	3.9	10
Cc1nc(-c2cccnc2)sc1C(=O)Nc1ccc(C(F)(F)F)cc1
    0.1	-2.1	-9%	-2	0	-6.0	16
O=S(=O)(NCc1cccs1)c1ccc(Br)s1
    ·	-0.1	·	-4	·	5.7	-3
O=C(Nc1ccc(-c2nnc3n2CCCCC3)cc1)c1ccco1
    -2.8	·	·	5	-7	-3.2	-7
CCCOC(=O)C1=C(C)NC2=C(C(=O)C(C(=O)OC)C(C)C2)C1c1ccc(N(C)C)cc1 (centres undefined)
    1.4	6.1	?	24	-11	2.2	8
Cc1cc2c(cc1S(=O)(=O)CCC(=O)NCc1ccccc1)OCC(=O)N2
    -0.2	2.8	·	0	1	2.9	1
COc1cccc(N2CCN(CC(=O)Nc3nc(C)c(C(=O)N(C)C)s3)CC2)c1
    -0.4	0.2	0%	55	0	5.4	-11
O=S(=O)(NN=C1CCCCC1)c1ccccc1
    -1.2	-0.4	-1%	-7	0	2.8	15

Four records drawn at random from those above, as already listed:
Values run as follows: HNF4A DNA FP	RanGTP-Impb inh	Vif TR-FRET	ALR inh	B2AR ag	LANA-H2A inh	Calb FLC
O=C(Nc1ccc(-c2nnc3n2CCCCC3)cc1)c1ccco1
    -2.8	·	·	5	-7	-3.2	-7
Cc1nc(-c2cccnc2)sc1C(=O)Nc1ccc(C(F)(F)F)cc1
    0.1	-2.1	-9%	-2	0	-6.0	16
Cc1ccc2c(c1)N=C(c1ccc(F)cc1)CO2
    1.5	·	20%	0	-5	0.0	-4
CCn1c(SCC(=O)Nc2ccc(C)cc2)nnc1-c1ccccn1
    -1.5	-3.7	2%	0	-3	-1.2	12

Going on with the list.
Values run as follows: HNF4A DNA FP	RanGTP-Impb inh	Vif TR-FRET	ALR inh	B2AR ag	LANA-H2A inh	Calb FLC
CCCSc1nnc(N2C(=O)CC(c3ccsc3)C3=C2CCCC3=O)s1 (centres undefined)
    0.0	9.0	-3%&2%	-17	-3	0.9	8
COC(=O)c1ccc2nc(Nc3nc4ccc(F)cc4s3)sc2c1
    0.9	5.7	·	·	-1	-2.4	1
O=C(COC(=O)c1ccccc1NC(=O)c1ccco1)Nc1ncc(Cl)cc1Cl
    -0.9	-0.9	?	-7	-6	2.3	-15
COc1ccccc1NC(=O)c1cc(OC)c(OC)cc1[N+](=O)[O-]
    0.3	2.0	31%	-27	-3	-1.1	23
Cc1cc(NC(=O)Nc2cccc(Cl)c2)n(C(C)(C)C)n1
    1.5	2.1	·	-4	0	-7.4	4
COC(=O)CCNC(=O)Cc1c(C)n(C(=O)c2ccc(Cl)cc2)c2ccc(OC)cc12
    1.5	-1.0	·	2	2	-0.9	1
COc1cccc(C(=O)/C=C/Nc2ccc(S(=O)(=O)Nc3onc(C)c3C)cc2)c1
    85*	?	-3%	13	1	-0.6	-18
C=C(C)c1cccc(C(C)(C)NC(=O)N2CCC(C(N)=O)CC2)c1
    1.8	4.3	6%	1	6	-4.3	?
CCOc1ccccc1NC(=O)c1ccc2c(c1)C(=O)N(C(C)(C)C)C2=O
    3.6	10	·	-1	-4	-5.1	0
Cc1ccc(C(=O)NCC(=O)OCC(=O)Nc2cc(S(=O)(=O)N3CCOCC3)ccc2Cl)s1
    3.5	·	·	13	-3	-6.1	·
CCO[C@H]1OC(C(=O)NCc2ccccc2)=C[C@@H](C2CC2)[C@@H]1CCCO
    1.3	-0.5	·	-6	-11	1.7	-5
COc1ccc2c(c1)C(=O)Cc1ccccc1O2
    -2.0	-3.3	·	-15	-1	17*	2
NC(=O)c1ccc(NC(=O)C#Cc2ccccc2)cc1
    -0.1	4.8	·	6	1	-1.1	30
O=C(NC(=S)Nc1ccccc1Br)C1CCCCC1
    -6.1	·	-11%	4	-6	-7.7	·
Cc1ccc(N2CCN(/N=C/C(Cl)=C/c3ccccc3)CC2)cc1
    -1.7	-2.0	-3%	1	7	-1.0	-8
COC(=O)c1c(SCc2cccc3ccccc23)nc(=O)[nH]c1C
    -1.6	-3.1	·	99*	5	10	3
C=CCN1CCN(C(c2cccc(OC)c2OC)c2nnnn2CCC(C)C)CC1 (centres undefined)
    1.6	2.3	-8%	6	-2	3.2	-7
COC(=O)c1cccc(NC(=O)CSc2nnc(C)o2)c1
    -2.4	0.5	·	-2	-3	1.3	-6
COc1ccc(/C=N/NC(=O)CNC(=O)c2ccc(S(=O)(=O)N3CCOCC3)cc2)c(OC)c1
    7.9	0.2	-2%	-3	5	0.3	-15
Cc1cc(C)nc(SCc2nnc(SCC(=O)Nc3nccs3)n2C)n1
    0.2	·	19%	·	1	·	·
O=c1c(C(c2ccc(Br)cc2)c2c(O)nc3n(c2=O)CCCS3)c(O)nc2n1CCCS2
    0.3	0.5	·	·	8	6.7	-20
CCCCCCCc1c(C#N)c(N)[nH]c(=S)c1C#N
    ·	9.4	20%	96*	3	0.2	-2
COc1ccccc1NC(=O)c1csc2c1CCCC2
    -0.4	3.3	-3%	·	-7	-0.3	2
Cc1ccc(N2CC(C(=O)Nc3nnc(SCc4ccccn4)s3)CC2=O)cc1 (centres undefined)
    -0.2	2.1	-2%	-4	-3	2.7	1
O=C(c1ccco1)N(CCC(c1ccccc1)c1ccco1)Cc1ccccc1 (centres undefined)
    -0.8	2.8	12%	71	2	-7.2	4
Cc1ccccc1COC(=O)c1nn(-c2ccccc2)nc1N
    -3.5	2.4	7%	-3	11	-0.9	-12
CC(=O)/C=C/c1ccccc1Oc1c(F)c(F)nc(F)c1F
    -2.4	7.0	24%	22	9	-2.6	-2
c1ccc(CCNc2nc(-c3ccncc3)cs2)cc1
    -2.8	2.7	5%	-5	1	0.1	6
CC(C)n1c(NCc2ccc(N(C)C)cc2)nc2ccccc21
    -0.4	-1.7	4%&10%	93*	1	2.8	-4
O=C1CCCc2nn(-c3ccccc3)c(-c3ccncc3)c21
    0.8	-2.2	11%	-5	-6	-1.1	3
O=C(Cn1c(=O)sc2ccccc21)Nc1nc2c(s1)CCCC2
    -1.0	1.9	-15%	42	-5	2.2	-17
CCOc1cc(/C=C(\C#N)c2[nH]nc(N)c2C#N)ccc1O
    2.1	0.2	13%	99*	-18	5.3	0
COc1ccc(/C(O)=C2\C(=O)C(=O)N(c3cc(C)on3)C2c2ccccc2OC)cc1 (centres undefined)
    1.4	4.2	-8%	4	50*	-2.3	9
CS(=O)(=O)NN1C(=O)c2ccccc2NC1c1c[nH]c2ccccc12 (centres undefined)
    1.9	4.3	19%	20	-55	0.3	-2
CCCCOc1cccc(C(=O)N(Cc2ccco2)C2CCS(=O)(=O)C2)c1 (centres undefined)
    0.7	0.9	-1%	-4	-18	1.3	0
O=C(NC1CCCCC1)N(Cc1ccc(F)cc1)Cc1nc2ccccc2c(=O)[nH]1
    -4.7	2.6	-10%	0	-5	3.7	3
Cc1nc(SCc2ccc(Cl)c(Cl)c2)n[nH]1
    118*	6.0	·	-11	-6	-4.2	-1
O=C(CCN=C1NS(=O)(=O)c2ccccc21)NCc1ccccc1F
    5.8	·	-10%	-39	3	5.8	·
CC(=O)N1CCC(=NNC(=O)c2cccs2)CC1
    2.5	2.0	-5%	77*	-1	0.8	-5
O=[N+]([O-])c1ccc2[nH]c(=S)[nH]c2c1
    1.9	·	2%	·	-1	·	·
CC(C(=O)Nc1ccc(Br)cc1)N(C)CC(=O)NCc1ccco1 (centres undefined)
    2.1	·	-3%	3	-2	4.4	·
COC(=O)c1ccc(C2NC(=S)N(c3ccccc3)C(C)=C2C(=O)Nc2ccccc2OC)cc1 (centres undefined)
    -2.7	0.5	-2%	9	46*	1.8	-20
COc1cccc(Cn2cccc(NC(=O)Nc3ccc(C#N)cc3)c2=O)c1
    4.1	0.1	27%	-12	1	3.3	0
C[Si](C)(C)n1ccnc1
    -0.6	?	·	-13	8	-7.8	-9
O=C(/C=C/c1ccc([N+](=O)[O-])cc1)N1CCN(c2ccccc2F)CC1
    0.7	?	-6%	0	-3	-3.7	-2
O=C(NCc1ccco1)/C(=C/c1ccco1)NC(=O)c1ccco1
    4.2	1.9	30%	-7	1	17	-20
CCCn1c(NC(=O)c2ccc(Cl)c(S(=O)(=O)N3CCCC3)c2)nc2ccccc21
    2.9	-1.5	-1%	-1	-4	1.2	?
C[n+]1cnn2c1SCC1(COC1)C2
    1.4	7.2	-1%	-26	2	-0.7	7
COc1cc(OC)cc(C(=O)NNC(=O)CCc2nc3ccccc3c(=O)[nH]2)c1
    4.3	·	-10%	-1	-3	-1.2	·
O=S(=O)(N/N=C\c1ccc2c(c1)OCO2)c1ccc(F)cc1
    -0.9	2.7	·	86*	-1	-3.4	22

Additional records.
Values run as follows: HNF4A DNA FP	RanGTP-Impb inh	Vif TR-FRET	ALR inh	B2AR ag	LANA-H2A inh	Calb FLC
CC(=O)C1=C(O)C(=O)N(c2cccc(Br)c2)C1c1ccccc1Cl (centres undefined)
    -1.1	4.8	?	4	1	1.6	26
COCCn1c(SCC(=O)NCc2ccc3c(c2)OCO3)nnc1-c1c[nH]c2ccccc12
    0.3	1.2	29%	-3	3	-7.2	-8
CCOc1cc(S(=O)(=O)NCCN2CCOCC2)c(C)cc1C
    -1.8	1.4	?	-31	0	3.6	5
CCOc1ccc(S(=O)(=O)N2CCN(C(=O)c3cccn3C)CC2)cc1
    1.9	1.1	30%	6	-13	-6.0	-7

Source: PubChem BioAssay (several laboratories)
